Screening results deposited in PubChem by several laboratories.
Yeast UUG start – alters start codon recognition fidelity in yeast. S. cerevisiae UUG-firefly luciferase reporter, luminescence/redox ratio. activity score, % at 18.7 µM. 350,000 tested, 0.13% active;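 active = replicate mean at a twofold rise or more, about +100% in these data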;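 also: firefly luciferase made from a UUG start codon reports start codon fidelity; reporter light over untreated wells divided by growth signal over untreated wells; some hits fall short of that in this replicate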
MT1-MMP act inh – inhibitors of human MT1-MMP activation | P50281 | HT1080 RFP-PRO-GFP cells, GFP/RFP ratio fluorescence, overnight; percent of plate control window, DMSO zero | GFP/RFP ratio change, % at 20 µM | 360,000 tested, 0.061% active;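 active = GFP/RFP ratio change of at least 30% with cell ATP level not reduced by more than half and red fluorescence within 50% of control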; also: strong numbers were not always called active
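Compound: 20 µM single dose, 1% DMSO / System: HT1080 RFP-PRO-GFP cells / Controls: DMSO and RFP-L50D-GFP cell wells / Read-out basis: GFP/RFP fluorescence ratio / Schedule: overnight compound exposure at 37 °C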
Rce1 inhib – inhibitors of yeast Ras-converting enzyme; AID 2563; calls only; 290,000 tested, 0.27% active; Q03530; yeast membranes, quenched prenylated peptide cleavage fluorescence;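 active = fall in fluorescence gain of 50% or more versus controls, with final raw signal at or below 3038400; inconclusive = same 50% fall but final raw signal above 3038400; inactive = fall in fluorescence gain under 50%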;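 also: plate controls were neutral control wells for no effect and wells lacking membranes for full effect; tested at 10 µM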
PABP polyA inh – PABP-poly(A) binding inhibition. P11940. PABP-poly(A) RNA binding, fluorescence polarization. inhibition, % at 35 µM. 290,000 tested, 1% active. AID 2014;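 active = 50% or more with normal probe brightness, or confirmed in later tests; inconclusive = above 50% with abnormal brightness, or retests that disagree; inactive = below 50% or failed in later tests; about a fifth of its hits are not listed in these tables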;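 also: calls also rest on retests at 20 µM and on dose response follow-up; controls were probe without protein and protein plus probe with vehicle; some compounds called inactive have numbers as strong as hits; many hits fall short of the cut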
Target sequence (P11940 whole entry, looked up): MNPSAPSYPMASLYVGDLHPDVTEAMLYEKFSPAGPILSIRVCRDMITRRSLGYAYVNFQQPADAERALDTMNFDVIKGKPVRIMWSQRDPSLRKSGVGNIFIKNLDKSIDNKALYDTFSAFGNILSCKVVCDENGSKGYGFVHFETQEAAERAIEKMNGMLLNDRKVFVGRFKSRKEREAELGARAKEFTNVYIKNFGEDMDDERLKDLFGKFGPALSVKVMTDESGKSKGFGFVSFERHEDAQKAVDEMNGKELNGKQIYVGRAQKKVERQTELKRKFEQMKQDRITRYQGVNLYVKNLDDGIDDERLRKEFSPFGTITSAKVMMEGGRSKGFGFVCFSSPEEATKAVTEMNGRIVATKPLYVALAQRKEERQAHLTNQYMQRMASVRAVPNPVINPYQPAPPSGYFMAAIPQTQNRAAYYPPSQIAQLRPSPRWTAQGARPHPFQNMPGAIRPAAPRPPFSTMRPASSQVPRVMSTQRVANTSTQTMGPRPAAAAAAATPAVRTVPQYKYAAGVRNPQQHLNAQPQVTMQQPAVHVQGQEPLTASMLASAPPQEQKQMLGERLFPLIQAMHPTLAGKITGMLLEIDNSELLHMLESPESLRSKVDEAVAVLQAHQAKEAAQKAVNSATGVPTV
HIV Env fusion – inhibitors of HIV Env-mediated cell fusion | HeLa-JRFL Env/CEM21 cell fusion, luciferase | inhibition, % at 12.3 µM | 360,000 tested, 1.1% active;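 active = mean replicate inhibition score of at least 50 and every replicate individually at or above 50; inconclusive = only one of the two criteria met; inactive = mean below 50 and not all replicates reaching 50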;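 also: 0% = plate neutral controls and 100% = maraviroc near 300 nM; one replicate is shown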
CSC inhib – cancer stem cell inhibition. cancer stem cell-like cells viability, luminescence. inhibition, % at 7.5 µM. 300,000 tested, 1.1% active. AID 2717;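 active = mean at 75% or more and at least half the replicates too; inconclusive = mean and replicates disagree; tested in HMLE shEcad cells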;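 also: 0% = median of negative and 100% = median of positive control wells; the first replicate is given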
eIF4H FP inh – inhibitors of RNA binding by human eIF4H; Q15056; eIF4H fluorescence polarization binding assay; inhibition, % at 35 µM; 290,000 tested, 0.94% active; AID 2012;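 active = 50% or more with normal probe brightness, or confirmed in later tests; inconclusive = above 50% with abnormal brightness, or retests that disagree; inactive = below 50% or failed in later tests; about a fifth of its hits are not listed in these tables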;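 also: calls also rest on retests at 20 µM and on dose response follow-up; 0% = protein and probe with vehicle and 100% = probe without protein; strong numbers were not always called active; many hits fall short of the cut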
eIF4H FP inh retest – recorded beside eIF4H FP inh, whose call it bears; inhibition, %; compound at 20 µM; confirmation average;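 mean of two retest wells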
PABP polyA inh retest – second read-out of PABP polyA inh, no call of its own (marks repeat the call); inhibition, %; compound at 20 µM; confirmation repeats;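 mean of two retest wells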
MT1-MMP act inh RFP – recorded beside MT1-MMP act inh, whose call it bears; RFP signal change, %; measured here: RFP expression control read;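 0 = vehicle wells; hits needed this value within 50% of zero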
An asterisk follows results filed as active; i = inactive; ? = inconclusive; . = no result given.

SMILES | Yeast UUG start | MT1-MMP act inh | MT1-MMP act inh RFP | Rce1 inhib | PABP polyA inh | HIV Env fusion | CSC inhib | eIF4H FP inh | others
COC(C(=O)Nc1ccc(S(=O)(=O)Nc2ccc(C)c(C)c2)cc1)c1ccccc1 (centres undefined) | . | -4 | -11 | i | -6 | -14 | 26 | -11
NC(=O)C1(N2CCCCC2)CCN(Cc2ccc(Br)cc2)CC1 | . | 4 | 2 | i | -7 | -6 | -8 | -1
CC1CCN(C(=O)CN(c2cccc(F)c2)S(C)(=O)=O)CC1 | . | 2 | 3 | i | 5 | -7 | -1 | 1
CCc1cc2c(cc(C(=O)O)n2C)s1 | 9 | -2 | 3 | i | 9 | . | -7 | 2
O=C(Nc1ncc2c(n1)-c1ccccc1OC2)c1ccc(Cl)cc1Cl | -16 | 4 | 1 | i | 4 | -82 | -4 | -3
CC(C)n1c(SCC(=O)Nc2ccc3c(c2)OCO3)nc2c1c(=O)n(C)c(=O)n2C | -7 | -1 | -6 | . | -1 | 1 | 4 | -8
CCOC(=O)CSc1nnc(-c2ccc(OC)cc2OC)o1 | -22 | -1 | 6 | i | 9 | . | 5 | 7
Cc1nc(C#N)c(N/N=C/c2c(F)cccc2Cl)o1 | -22 | -5 | 1 | i | 8 | -60 | -14 | 6
CSc1ncnc2c1ncn2CCCNCc1cccc2ccccc12 | -9 | 3 | 3 | . | . | -18 | . | .
COCCn1c(SCCCc2ccccc2)nc2c1c(=O)[nH]c(=O)n2C | -6 | 5 | -4 | . | -1 | . | 32 | 4
O=C(COC(=O)/C=C/c1cccs1)Nc1cccc(S(=O)(=O)N2CCOCC2)c1 | -21 | 1 | 3 | i | 0 | 15 | -9 | -9
CCCCCC(=O)N1C[C@@H](n2cc(COC(=O)c3ccccc3)nn2)[C@H](O)C[C@@H]1c1ccc(C)cc1 | -9 | -3 | 1 | . | . | -13 | . | .
CCOC(=O)C(C)Oc1ccc2c(C)cc(=O)oc2c1C(C)=O (centres undefined) | -14 | 4 | 2 | i | 0 | 2 | -13 | -3
CCc1nnc(NC(=O)c2ccc(S(=O)(=O)NC3CCCCC3)cc2)s1 | 3 | 6 | -10 | i | 8 | . | 24 | -14
COc1ccc(CN2CC(COCc3ccccc3)Oc3ccccc3S2(=O)=O)cc1 (centres undefined) | 5 | 0 | -3 | . | . | -17 | . | .
N=c1c(C(=O)NC2CCCCC2)cc2c(=O)n3ccccc3nc2n1Cc1cccnc1 | -15 | -3 | -1 | . | 4 | -16 | 3 | 9
CCOC(=O)[C@@H]1[C@H]2COc3cc(OC)ccc3[C@@H]2N2C(=O)N(c3ccc(OC)cc3)C(=O)[C@]12C | 1 | -2 | -2 | i | 2 | . | -27 | -6
Cc1cc(C(=O)N/N=C/c2ccc(C)o2)c2ccccc2n1 | 0 | 6 | -5 | i | 0 | -41 | 13 | 0
NC(=O)C1CCN(C(=O)C23CC4CC(CC(C4)C2)C3)CC1 | -12 | -9 | 0 | i | -8 | 0 | -12 | 0
O=C(NCc1ccncc1)C(=O)NCC1OCCN1S(=O)(=O)c1ccc(Br)cc1 (centres undefined) | -11 | 1 | -2 | i | 12 | 1 | 24 | 7
COC(=O)n1c(=O)oc2cc(S(=O)(=O)N3CCOCC3)ccc21 | -22 | 0 | -1 | i | 13 | -12 | -4 | -1
O=C(CSCc1cc(=O)[nH][nH]1)Nc1ccc(F)cc1 | . | 9 | 5 | i | -4 | -4 | 4 | -5
CC(=O)c1cccc(N(C(=O)c2ccco2)C(C(=O)NC2CCCC2)c2cccs2)c1 (centres undefined) | 9 | -1 | 2 | i | -6 | 14 | 0 | -6
O=C(CCc1c[nH]c2ccccc12)OCC(=O)c1ccccc1 | -23 | 1 | 2 | . | . | -19 | . | .
O=[N+]([O-])c1ccc(S(=O)(=O)CC(CN2CCCCC2)N2CCCCC2)cc1 (centres undefined) | . | -8 | -4 | i | -22 | -12 | 78* | 3
Continued:
SMILES | Yeast UUG start | MT1-MMP act inh | MT1-MMP act inh RFP | Rce1 inhib | PABP polyA inh | HIV Env fusion | CSC inhib | eIF4H FP inh | others
COCCCn1c(=O)c2ccccc2n(CC(=O)NC2CCCCC2)c1=O | -6 | 5 | 6 | i | -4 | 8 | -9 | -14
COc1cccc(CN2CCNC(=O)C2CC(=O)NC2CCCCCCC2)c1 (centres undefined) | 3 | 2 | 2 | i | 2 | 8 | 10 | -2
CC(=O)/C(=C\N(C)C)Sc1ccc(C)cc1 | -16 | -1 | 3 | i | 0 | -2 | -6 | 8
OCC[C@H]1C[C@H](O)[C@@H](O)[C@]2(CCc3ccccc3O2)O1 | -15 | 8 | 0 | . | . | 6 | 6 | .
COCCNc1ncnc2c1cnn2Cc1ccc(Cl)cc1 | 2 | 7 | 1 | i | -3 | . | -2 | -2
O=C(NCc1ccccc1)c1cc[n+]([O-])cc1 | -16 | 2 | 3 | i | -3 | -4 | -7 | -10
O=C(COc1ccc(Cl)cc1[N+](=O)[O-])NC1CCCCC1 | . | 0 | -20 | i | -2 | -58 | 2 | -11
COc1ccc(-c2noc(-c3csc([C@@H]4C[C@H](O)[C@@H](CO)O4)n3)n2)cc1OC | -1 | 4 | 4 | . | . | -9 | . | .
COc1ccc(C2Nc3ccccc3C(=O)N2NS(C)(=O)=O)c(OC)c1 (centres undefined) | 2 | -5 | 2 | i | -7 | 1 | 15 | -8
O=C(CSc1ncccn1)NCc1cccs1 | -18 | 2 | 5 | i | -15 | -4 | -8 | -6
Clc1ccc(OCCn2c(-c3ccco3)nc3ccccc32)cc1 | -23 | 8 | 0 | i | -8 | -1 | 39 | -10
OCc1ccnc(Cl)c1 | . | 3 | 5 | i | 1 | . | -18 | -2
O=C(CCSc1ccccc1)NC1CCCCCC1 | . | -4 | 1 | i | 93* | 6 | 7 | 10 | eIF4H FP inh retest=41;PABP polyA inh retest=54*
COC(=O)C1CCN(C(=O)/C(C)=C\c2ccccc2)CC1 | -13 | 2 | 1 | i | -3 | -3 | 3 | -9
CC(C)(C)CC(=O)NC(=S)N1CCCCCC1 | -7 | 2 | 1 | i | 2 | -18 | -8 | 2
COc1ccc(NC(=O)CSc2nnc(C)n2Cc2ccccc2)cc1 | . | 3 | 4 | i | 9 | 9 | -3 | -1
CC(C)(O)C#Cc1ccc(C(=O)NCc2cccs2)s1 | -12 | -2 | 1 | i | -3 | -174 | 3 | 0
CN(CC(=O)NCCCN1CCOCC1)S(=O)(=O)c1cc(Cl)ccc1Cl | -4 | -2 | -4 | i | 1 | 3 | -11 | -4
Nc1cc2c(cc1[N+](=O)[O-])OCCOCCOCCO2 | -10 | 6 | -3 | i | -2 | -14 | -3 | 2
COC(=O)[C@]1(Cc2ccccc2)N[C@H](CN(C)C(C)=O)[C@@H]2C(=O)N(C)C(=O)[C@@H]21 | -12 | 3 | 8 | . | . | 10 | . | .
Cc1cc(C(F)(F)F)nn1CC(=O)NNC(=S)Nc1cccc(Cl)c1 | -14 | -1 | -1 | i | -16 | 7 | -6 | -5
CCC(c1c(C)n(C)n(-c2ccccc2)c1=O)c1c(C)n(C)n(-c2ccccc2)c1=O | -6 | -1 | 3 | i | 12 | -142 | -7 | 7
O=C(c1cc2nc(-c3ccco3)cc(C(F)(F)F)n2n1)N1CCCCCC1 | -17 | -13 | -9 | i | -2 | 19 | -10 | 1
COc1ccc(C(=O)CN2C(=O)NC3(CCCCC3)C2=O)cc1OC | -7 | 1 | 0 | i | 45 | 1 | 0 | 5
COc1ccc(OC)c(NC(=O)CCNC(=O)Cn2ccc3ccccc3c2=O)c1 | -7 | 4 | 6 | . | 6 | 45 | 5 | -15
Carrying on.
SMILES | Yeast UUG start | MT1-MMP act inh | MT1-MMP act inh RFP | Rce1 inhib | PABP polyA inh | HIV Env fusion | CSC inhib | eIF4H FP inh | others
O=C1Nc2ccccc2S/C1=C/Nc1cccc(Cl)c1 | -11 | 1 | 6 | i | -4 | -24 | 48 | -2
O=C1C2=C(Nc3ccccc3SC2c2ccco2)c2ccccc21 (centres undefined) | -10 | 1 | 2 | i | 42 | . | -5 | 25
O=C(O)c1ccc(N/N=C/C=C/c2ccccc2)cc1 | -18 | 3 | 0 | i | 0 | -48 | -24 | -6
Cc1cc2oc(=O)cc(Cn3nnc(-c4ccc(Cl)cc4)n3)c2cc1C(C)C | . | . | . | i | 6 | . | -7 | 0
CC12CCC(=O)N1C(C(=O)N1CCN(c3ccc(C(F)(F)F)cc3[N+](=O)[O-])CC1)CS2 (centres undefined) | -17 | 7 | -3 | . | -19 | -3 | -9 | -7
Nc1ccccc1C(=O)NNc1c2ccccc2nc2ccccc12 | -2 | 18 | -6 | i | 11 | 18 | -21 | -8
COCCNC(=O)CN1C(=O)NC2(CCCc3ccccc32)C1=O (centres undefined) | -18 | 6 | 5 | i | -7 | 0 | -5 | -8
Cn1c(C(=O)c2ccncc2)cc2ccccc21 | -29 | -3 | -2 | i | -3 | -5 | 4 | 9
O=C(Nc1nccs1)c1cccc(N2C(=O)c3cccc4c([N+](=O)[O-])ccc(c34)C2=O)c1 | -20 | -58 | 3 | i | 57 | . | 36 | 20 | eIF4H FP inh retest=15;PABP polyA inh retest=22
COc1ccc(OCC(O)Cn2c(N)nc3c2c(=O)[nH]c(=O)n3C)cc1 (centres undefined) | -10 | 1 | 2 | i | -1 | 3 | -9 | 6
COc1cc(C[C@@H](C)[C@@H](C)Cc2ccc(O)c(OC)c2)ccc1O | 19 | 11 | -4 | . | . | 24 | 29 | .
CC1N(C)c2cc(NC(=O)c3ccco3)ccc2C1(C)C (centres undefined) | . | 59 | 88 | i | ? | . | -3 | ?
O=C(C1CCN(c2nnc(-n3cccc3)s2)CC1)N1CCOCC1 | -16 | 6 | 4 | i | -4 | -14 | -8 | -10
CC(C)CC(=O)NC(=S)Nc1ccccc1N1CCCC1 | -15 | 1 | -5 | i | 13 | 7 | 0 | 1
C[C@]12C(=O)N(c3ccc(Cl)cc3)C(=O)N1[C@H]1c3ccccc3OC[C@@H]1[C@H]2c1ccccc1 | -21 | 1 | -7 | i | -11 | . | 16 | -13
C=CCNC(=O)c1c(-c2c(F)cccc2Cl)noc1C | -19 | -8 | -5 | i | 2 | . | 9 | -12
O=C(c1cc2ccccc2o1)N1CCN(c2ncccn2)CC1 | -16 | 0 | 4 | . | . | -10 | -16 | .
CC(NC(=O)c1cc2cc(Cl)ccc2oc1=N)c1ccccc1 (centres undefined) | -8 | 3 | 0 | i | -5 | 0 | 11 | 9
CC(C)(C)NC(=O)C(=O)NNC(=O)COc1ccc(Br)cc1 | -1 | 7 | 4 | i | 0 | . | 21 | 5
CCn1c(C)c(C)c2cc(C(=O)NCCc3ccco3)ccc21 | -28 | 19 | 19 | i | -6 | -11 | 13 | 4
CN(C)CCn1c2c(c(SCC(=O)Nc3ccc4c(c3)OCCO4)nc1=O)CCCC2 | -7 | 1 | -1 | i | . | -3 | -20 | .
Cc1ccc(CC(=O)N2CCN(S(=O)(=O)c3ccccc3)CC2)cc1C | . | 8 | 2 | i | . | 23 | -15 | .

Looked up by structure from the list above (3):
SMILES | Yeast UUG start | MT1-MMP act inh | MT1-MMP act inh RFP | Rce1 inhib | PABP polyA inh | HIV Env fusion | CSC inhib | eIF4H FP inh | others
COC(=O)C1CCN(C(=O)/C(C)=C\c2ccccc2)CC1 | -13 | 2 | 1 | i | -3 | -3 | 3 | -9
Clc1ccc(OCCn2c(-c3ccco3)nc3ccccc32)cc1 | -23 | 8 | 0 | i | -8 | -1 | 39 | -10
CCc1nnc(NC(=O)c2ccc(S(=O)(=O)NC3CCCCC3)cc2)s1 | 3 | 6 | -10 | i | 8 | . | 24 | -14
